SmPrx2 inh – Schistosoma Mansoni Peroxiredoxins (Prx2) | S. mansoni Prx2 activity coupled to TGR/GSH (TGR is thioredoxin glutathione reductase), NADPH fluorescence loss, qHTS; some inactives read as strong as hits | Schistosoma mansoni peroxiredoxin 2 (Prx2) | actives 0.07% (n = 65,000) | Potency, µM; active means full or partial inhibition curve with a strong effect at the top dose; inconclusive means weaker partial or single-point curve; inactive means no accepted curve; note: series up to 57 µM; many of its hits are not listed in these tables
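Purified S. mansoni TGR and Prx2 in pH 7.4 phosphate buffer with EDTA and Tween-20 were preincubated with compounds for 15 min. Further NADPH/GSH was added, then a 2.5 mM H2O2 aliquot initiated turnover, followed kinetically by NADPH fluorescence.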
LT uptake inh – qHTS Assay for Anthrax Lethal Toxin Internalization. actives 0.67% (n = 70,000). Cells, anthrax lethal toxin internalization, FRET ratio (460/530). Potency, µM (highest dose often 40 µM), without a hit: at the top dose activity change, negative = inhibition, actives largely listed as inhibitors; active = well fitted falling ratio curve with the 530 nm signal flat; inconclusive = other ratio curves, or a change in one channel alone; inactive = flat curves in the ratio and both channels; the % refers to the ratio; note: % is set by controls: 0 for no effect and ±100 for the full control effect; nearly all actives have a fitted effect of over 50% in size; tested in ME-180 cells; beta-lactamase reporter
* marks the source's active call; other numbers are inactive results; ? = inconclusive; . = no result given; & = joins results of further samples; [ ] = dose if it differs, or a comment. Potency is the fitted concentration of half-maximal effect.

Start of the listing, in advance (19 entries):
SMILES	SmPrx2 inh	LT uptake inh
CCCCN(C(=O)Cn1nnc2ccccc21)C(C(=O)NCc1ccco1)c1ccncc1 (stereo not given)	.	-2%
Cc1csc(-c2coc3cc(O)cc(C)c3c2=O)n1	.	-26%
Cc1ccc2nc(-c3cccnc3)oc2c1	>57	11%
CCCC(=O)Nc1cc(OC)c(NC(=O)NC2CCCCC2)cc1OC	>57	-16%
COc1ccc(OCC(O)CN2C(=O)c3ccccc3S2(=O)=O)cc1 (stereo not given)	.	-15%
COC(=O)CC1=COC2OCC3=CC[C@@H]1C32 (stereo not given in full)	.	-6%[8 µM]
O=C(NCCCCNC(=O)c1c(F)c(F)c(F)c(F)c1F)c1c(F)c(F)c(F)c(F)c1F	>57	19%
O=C(c1cccnc1)N1CCc2ccccc2C1	>57	2%
CC1=CC(=O)NP(=O)(Oc2ccc3ccccc3c2)N1 (stereo not given)	0.57*	?
Nc1ccc(CCc2nc3ccccc3o2)cc1	>57	0%
CC(C)C1=CC2=CC[C@H]3[C@@](C)(CCC[C@]3(C)C(=O)O)[C@@H]2CC1	>57	?
CN1C(=O)c2cccc3c(S(=O)(=O)Nc4ccccn4)ccc1c23	>57	5%
CCOc1ccc2[nH]c(=O)c(=O)[nH]c2c1	.	12%
CCOc1cccc(/C(O)=C2/C(=O)C(=O)N(Cc3ccco3)C2c2ccncc2)c1 (stereo not given)	>57	0%
N#Cc1ccccc1Sc1ccccc1C(=O)N1CCOCC1	>57	11%
COC(=O)c1ccc(C(NC(=O)OCc2ccccc2)/C(=C/[C@@H](C)C(=O)NCCc2c[nH]c3ccccc23)c2cccnc2)cc1 (stereo not given in full)	.	6%
CCOC(=O)c1cnc(SCC(=O)c2ccccc2)nc1N	.	-4%
O=C(O)CN1C(=O)C2(OCCCO2)c2ccccc21	>57	-2%
CN(CC(=O)Nc1ccncc1)S(=O)(=O)c1ccc(Cl)cc1	>57	1%

Main list, repeating the preview:
SMILES	SmPrx2 inh	LT uptake inh
CCCCN(C(=O)Cn1nnc2ccccc21)C(C(=O)NCc1ccco1)c1ccncc1 (stereo not given)	.	-2%
Cc1csc(-c2coc3cc(O)cc(C)c3c2=O)n1	.	-26%
Cc1ccc2nc(-c3cccnc3)oc2c1	>57	11%
CCCC(=O)Nc1cc(OC)c(NC(=O)NC2CCCCC2)cc1OC	>57	-16%
COc1ccc(OCC(O)CN2C(=O)c3ccccc3S2(=O)=O)cc1 (stereo not given)	.	-15%
COC(=O)CC1=COC2OCC3=CC[C@@H]1C32 (stereo not given in full)	.	-6%[8 µM]
O=C(NCCCCNC(=O)c1c(F)c(F)c(F)c(F)c1F)c1c(F)c(F)c(F)c(F)c1F	>57	19%
O=C(c1cccnc1)N1CCc2ccccc2C1	>57	2%
CC1=CC(=O)NP(=O)(Oc2ccc3ccccc3c2)N1 (stereo not given)	0.57*	?
Nc1ccc(CCc2nc3ccccc3o2)cc1	>57	0%
CC(C)C1=CC2=CC[C@H]3[C@@](C)(CCC[C@]3(C)C(=O)O)[C@@H]2CC1	>57	?
CN1C(=O)c2cccc3c(S(=O)(=O)Nc4ccccn4)ccc1c23	>57	5%
CCOc1ccc2[nH]c(=O)c(=O)[nH]c2c1	.	12%
CCOc1cccc(/C(O)=C2/C(=O)C(=O)N(Cc3ccco3)C2c2ccncc2)c1 (stereo not given)	>57	0%
N#Cc1ccccc1Sc1ccccc1C(=O)N1CCOCC1	>57	11%
COC(=O)c1ccc(C(NC(=O)OCc2ccccc2)/C(=C/[C@@H](C)C(=O)NCCc2c[nH]c3ccccc23)c2cccnc2)cc1 (stereo not given in full)	.	6%
CCOC(=O)c1cnc(SCC(=O)c2ccccc2)nc1N	.	-4%
O=C(O)CN1C(=O)C2(OCCCO2)c2ccccc21	>57	-2%
CN(CC(=O)Nc1ccncc1)S(=O)(=O)c1ccc(Cl)cc1	>57	1%
CCOC(=O)c1c(NC(=O)COC(=O)c2c(C)noc2C)sc2c1CCC2	>57	13%
O=C(Cc1cc(=O)[nH]c(=O)[nH]1)NCC1CCCO1 (stereo not given)	>57	4µM*
Cc1cc(C)nc(SCC(=O)OCN2C(=O)c3ccccc3C2=O)n1	.	-7%
CSc1nc2c(c(-c3ccc(O)cc3)c1C#N)CCC2	>57	18%
COc1cc(C(=O)OCC(=O)N(C)Cc2ccccc2)cc(OC)c1OC	>57	1%
COCCn1c(Sc2ccc(C)cc2)nc2c1c(=O)[nH]c(=O)n2C	>57	12%
O=C(NCCCn1ccnc1)c1noc2c1CCc1ccccc1-2	>57	-12%
CCOC(=O)c1nnn(CC(=O)Nc2cc(F)ccc2F)c1C(=O)OCC	>57	-12%
Cc1ccccc1N(C)S(=O)(=O)c1ccc2[nH]cc(C(=O)NCC3CCCO3)c(=O)c2c1 (stereo not given)	>57	?
CCOc1cc(N2CCOCC2)c(OCC)cc1NC(=O)c1nc2nc(C)cc(C)n2n1	>57	-1%
O=C(Nc1ccccc1N1CCCCC1)c1cccc(F)c1	>57	-29%
COc1ccc(C(=O)N2CCCC2)cc1S(=O)(=O)N1CCOCC1	>57	?
CCOC(=O)c1sc2ncnc(N3CCN(C(=O)OCC)CC3)c2c1C	>57	8%
CCOC(=O)CSc1nnc(CNC(=O)c2cccs2)n1Cc1ccccc1	>57	6%
COc1cc2c(C#N)c(N3CCN(c4ccccc4OC)CC3)nc(N)c2c(N)n1	>57	-29%
CN1CCN(c2nc(Nc3cccc(C(F)(F)F)c3)nc(N3CCOCC3)n2)CC1	?	-18%
Cc1ccc(NC(=O)C(C)Sc2nnc(-c3cccnc3)o2)cc1 (stereo not given)	>57	-9%
CCn1nnnc1Oc1ccc(Cl)cc1	>57	0%
COc1ccc(C2C(C(=O)Nc3ccccn3)=C(C)Nc3ncnn32)c(OC)c1 (stereo not given)	>57	-11%
CCn1c(SCC(=O)c2ccc(OC)cc2)nnc1C(C)NC(=O)c1ccc(OC)cc1 (stereo not given)	>57	9%
O=S(=O)(c1ccccc1)c1cccc(S(=O)(=O)N2CCCCC2)c1	>57	-12%
CC(C)(Sc1ccc(CCN(CCCCC2CCCCC2)C(=O)NC2CCCCC2)cc1)C(=O)O	>57&>57	?
CC(C)OCCCNC(=O)CCN1C(=O)COc2ccccc21	>57	10%
CN1C(=O)C(C2(C#N)CCCCC2)C(=O)N(C)C1=O	>57	3%
O=c1cnc2cnc(Oc3ccccc3)nc2n1CCc1ccccc1	>57	-14%
CCN(C(=O)c1ccc(C(C)(C)C)cc1)c1nnc(Cn2nnc3ccccc32)s1	>57	?
COC(=O)/C=c1\sc2ncnn2c1=O	>57	-22%
Cn1c(CSCc2ccc(F)cc2)nnc1SCC(=O)Nc1nccs1	>57	7%
CNC(=O)c1cc2ccc(OC)cc2oc1=O	.	?
Cc1csc2nc(CNC(=O)C3CC=CCC3C(=O)O)cn12 (stereo not given)	>57	-4%
Cc1ccc(S(=O)(=O)N2CC(=NO)C2)cc1	>57	3%
(next part)
SMILES	SmPrx2 inh	LT uptake inh
Cc1cc(=O)n2c(-c3ccccc3C)n[nH]c2n1	>57	9%
COc1ccc(C(=O)Nc2cccc(OC)c2)cc1	>57	-16%
Fc1cc2nc(-c3ccncc3)[nH]c2cc1F	>57	.
Cn1c(CNC(=O)Nc2ccccc2)nnc1SCc1ccccc1	>57	-7%
BrC(Br)C(Br)Br	.	-6%
COC(=O)c1ccc(-n2nnnc2SCC(=O)NCc2cccc(C(=O)O)c2)cc1	>57	1%
COC(=O)c1ccc(OC)c(CSc2nnc(COc3cccc(C)c3)o2)c1	>57	?
CCc1cc(=O)oc2cc(C)c3c(C)coc3c12	>57	-16%
Br/C(=N\Nc1nn[nH]n1)c1ccncc1	>57	-10%[8 µM]
Cc1ccc(S(=O)(=O)N2CCCC2C(=O)OCC(=O)Nc2ccc3c(c2)OCO3)cc1 (stereo not given)	>57	-10%
COc1ccccc1NC(=O)CCN1CCCCCC1	>57	1%
CCOC(=O)c1ccccc1N1C(=O)CSC1=S	>57	?
CCCN1CN(Cc2ccco2)c2nc3ccccc3n2C1	>57	-9%
CC1CC(=O)c2cnc(Nc3cccc(C(F)(F)F)c3)nc2C1 (stereo not given)	>57	2%
O=C(NCCc1ccccc1)c1ccc(=O)oc1	>57	0%
Cc1nc(N2CCOCC2)c2nc(-c3ccccc3)n(CCCN(C)C)c2n1	.	5%
O=C1CCCC2=C1C(c1ccc3c(c1)OCO3)c1c([nH]n(-c3ccccc3)c1=O)N2 (stereo not given)	>57	8%
CN(C)S(=O)(=O)c1ccc2c(c1)c(=O)c(C(=O)NCCCN1CCCCCC1)cn2C	>57	-1%
O=C(Nc1ccncc1)c1ccc2c(c1)OCCO2	.	-1%
CC1CN(C2CCCCC2)c2nc3c(c(=O)[nH]c(=O)n3C)n2C1 (stereo not given)	>57	7%
O=C(Nc1ccon1)c1csc2c1CCCC2	>57	-9%
COC(=O)c1sc(N)c(C(=O)OC)c1COC(=O)c1c(C)noc1C	>57	-4%
CCOc1ccc(N(C(C)=O)C2C=CS(=O)(=O)C2)cc1 (stereo not given)	>57	14%
COc1ccc(-c2c(C)nn3c(N4CCC(C(=O)N5CCCCC5)CC4)cc(C)nc23)cc1OC	>57	16%
COc1cccc(NC(=O)CCCn2c(=O)[nH]c3ccccc3c2=O)c1	>57	1%
Cc1cccc(NC(=O)Cn2nnc(-c3ccc(CN4CCCC4)cc3)n2)c1C	>57	-10%
O=C(O)Cc1cccc2c(=O)cc(-c3ccccc3)oc12	>57	1%[8 µM]
COc1ccc(-c2nnc3sc(C4CCCCC4)nn23)cc1OC	>57	21%
COCCn1c(SCC(=O)OC(C)C)nnc1-c1ccccc1	>57	-10%
O=C(NCCc1nc2ccccc2[nH]1)c1ccc(F)cc1	>57	0%
O=C(Nc1ccc2oc(-c3ccncc3)nc2c1)c1ccccc1F	>57	-23%
CCCC1=C(C(=O)OCC)C(c2ccc(NC(C)=O)cc2)NC(=O)N1 (stereo not given)	>57	9%
COc1ccc(C(=O)CN2CCN(c3ccc(F)cc3)CC2)cc1OC	>57	23%
COCCn1c(=O)c(-c2cc(F)cc(F)c2)nc2cnc(N3CCOCC3)nc21	>57	?
COC(=O)NC(c1cccc(C)c1)[C@@]1(C(=O)OC)CCCC1=O (stereo not given in full)	.	-5%[8 µM]
CCc1ccc(CCC(=O)Nc2nccs2)o1	>57	-8%
COCCCNC(=O)Cn1cc(C(C)=O)c2ccccc21	>57	-4%
CCC(C)NC(=O)N[C@@H](CCSC)C(=O)O (stereo not given in full)	?	0%
CCC(=Nc1ccccc1NC(C)=O)c1c(O)n(C)c(=O)n(C)c1=O	>57	10%
CCc1ccc(-n2c(SCC(=O)Nc3cc(C)[nH]n3)nc3[nH]ncc3c2=O)cc1	>57	-7%
O=C1CCCN1CCC1CCN(C2CC(=O)N(c3ccc(F)cc3)C2=O)CC1 (stereo not given)	>57	-2%
CCCCNc1nc(C)nc2c1nc(-c1ccccc1)n2C(C)CCCN(CC)CC (stereo not given)	.	-16%
COc1cc2c(cc1O)C[C@H]1c3c(cc(O)c(OC)c3-2)CCN1C	>57&>57	?
C=CCN(C(=O)CNC(=O)c1ccco1)C(C(=O)NC1CCCCC1)c1ccccc1F (stereo not given)	>57	0%
O=C(COC(=O)C1COc2ccccc2O1)NC(=O)Nc1ccc2c(c1)OCCO2 (stereo not given)	>57	-5%
COc1ccccc1NC(=O)Nc1ncccc1C	>57	1%
Cc1cc(C)c(NC(=O)CS(=O)CC(=O)N2CCN(c3ccc(F)cc3)CC2)c(C)c1 (stereo not given)	>57	-2%
Cc1ccc(-c2nc3c(=O)n(C)c4ccccc4c3o2)cc1	>57	10%
CCNS(=O)(=O)c1cc(Br)ccc1OC	>57	-5%
COc1ccc(N(CC(=O)Nc2ccc3c(c2)OCO3)S(=O)(=O)c2ccccc2)c(OC)c1	>57	?
Next section.
SMILES	SmPrx2 inh	LT uptake inh
CN(C)c1ccc(/C=C/c2cc[n+]([O-])cc2)cc1	>57	?
CCCCN(C(=O)NC(=O)Nc1ccccc1C)S(C)(=O)=O	>57	5%
CCOc1cc2c(cc1OCC)C(C(=O)O)C(c1cc(OC)c(OC)c(OC)c1)N(C)C2=O (stereo not given)	>57	-1%
Cn1cc(-c2nc3cnc(N4CCOCC4)nc3n(C3CC3)c2=O)c2ccccc21	>57	?
CCCCOc1ccccc1Cn1c(=O)oc2ccccc21	>57	?
N/C(CN1CCCC1=O)=N\O	>57	-2%
O=C(O)CCC(=O)c1ccc2ccc3cccc4ccc1c2c34	>57	?
O=C(Cn1c(C(=O)NCC2CCCO2)cc2sccc21)c1ccccc1 (stereo not given)	>57	-5%
CCOC(=O)CNc1nc(C#N)nc(N2CCOCC2)n1	>57	10%
CCc1sc(C(=O)Nc2ccsc2C(=O)OC)cc1Br	>57	3%
CCCC[C@@H]1C[C@H]1C(NC(=O)c1cccnc1)c1ccc(-c2ccccc2)cc1 (stereo not given in full)	>57	-10%
COC(=O)NC(/C(C(=O)OC)=C(\C)NCc1ccccc1)c1cccc(F)c1 (stereo not given)	.	-7%[8 µM]
Cn1c(=O)oc2cc(S(=O)(=O)NCCC(=O)NCCc3ccc(Cl)cc3)ccc21	>57	6%
O=C(c1ccco1)N1CCC[C@@]2(CCN(c3ccccn3)C2)C1	>57	9%
COc1ccccc1OCCSc1nc2ccccc2c(=O)[nH]1	.	-9%
CC1(C)CC(=O)C(C=Nc2ccc3[nH]ncc3c2)=C(O)C1	.	1%

Compound activity from PubChem BioAssay.

Only part of the results is shown, so the mix of outcomes need not match the whole.
